Screening results deposited in PubChem by National Center for Advancing Translational Sciences (NCATS).
SmPrx2 inh = Schistosoma mansoni Prx2 inhibition | 65,000 compounds, 0.07% hits | S. mansoni Prx2 activity coupled to TGR/GSH (TGR is thioredoxin glutathione reductase), NADPH fluorescence loss, qHTS; some inactives read as strong as hits | Potency, µM | AID 448; active means full or partial inhibition curve with a strong effect at the top dose; inconclusive means weaker partial or single-point curve; inactive means no accepted curve; further: series up to 57 µM; many of its hits are not listed in these tables
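Purified S. mansoni TGR and Prx2 in pH 7.4 phosphate buffer with EDTA and Tween-20 were preincubated with compounds for 15 min. Further NADPH/GSH was added, then a 2.5 mM H2O2 aliquot initiated turnover, followed kinetically by NADPH fluorescence.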
LT uptake inh = inhibitors of anthrax lethal toxin internalization | 70,000 compounds, 0.67% hits | Cells, anthrax lethal toxin internalization, FRET ratio (460/530) | Potency, µM (titrated, usually from 40 µM), for the others: at the highest dose activity change, negative = inhibition, hits mostly inhibitors; active = well fitted falling ratio curve with the 530 nm signal flat; inconclusive = other ratio curves, or a change in one channel alone; inactive = flat curves in the ratio and both channels; the % refers to the ratio; further: on the % scale 0 is the no-effect control and ±100 the full control effect; nearly all actives have a fitted effect of over 50% in size; tested in ME-180 cells; beta-lactamase reporter
Numbers without * were called inactive; ? = inconclusive; . = not tested or not shown; [ ] = dose if it differs, or a comment. Potency means the concentration at half of the fitted maximal effect. Only part of the results is shown, so the mix of outcomes need not match the whole.

The first five entries as a preview:
SMILES | SmPrx2 inh | LT uptake inh
O=C(NCC1COc2ccccc2O1)C1CCC(CNc2c(N3CCCCC3)c(=O)c2=O)CC1 (centres undefined) | >57 | ?
CCOC(=O)COc1nc(OC)nc(N2CCOCC2)n1 | >57 | -9%
O=c1c2ccccc2oc2nc(-c3ccco3)n(Cc3ccccc3)c(=O)c12 | >57 | 1%
COc1ccc(C2C=C(C)Nc3nc(SC)nn32)cc1 (centres undefined) | >57 | 8%
COc1cccc(Nc2ncc3nc(C)c(=O)n(Cc4cccs4)c3n2)c1 | >57 | ?

All compounds of this part (from the top)
SMILES | SmPrx2 inh | LT uptake inh
O=C(NCC1COc2ccccc2O1)C1CCC(CNc2c(N3CCCCC3)c(=O)c2=O)CC1 (centres undefined) | >57 | ?
CCOC(=O)COc1nc(OC)nc(N2CCOCC2)n1 | >57 | -9%
O=c1c2ccccc2oc2nc(-c3ccco3)n(Cc3ccccc3)c(=O)c12 | >57 | 1%
COc1ccc(C2C=C(C)Nc3nc(SC)nn32)cc1 (centres undefined) | >57 | 8%
COc1cccc(Nc2ncc3nc(C)c(=O)n(Cc4cccs4)c3n2)c1 | >57 | ?
CCOC(=O)Cc1csc(NC(=O)c2ccc(S(=O)(=O)N3CCCCC3)cc2)n1 | >57 | -3%
Cc1cccnc1NC1=NCC(C)S1 (centres undefined) | >57 | 1%
Cc1ccc2nc(NC(=O)Cn3cc4c(n3)CCCCC4)sc2c1 | >57 | -18%
CC(C)C(OC(=O)c1ccco1)C(=O)NCc1cccs1 (centres undefined) | >57 | 15%
CCOC(=O)C(CC)Sc1nnc2n1C(C)(C)Cc1ccccc1-2 (centres undefined) | >57 | 2%
CCOCCCNC(=O)C(c1ccc(C)cc1)N(Cc1ccc2c(c1)OCO2)C(=O)c1cnccn1 (centres undefined) | >57 | 17%
C=CCNc1nc(N(c2ccccc2)c2ccccc2)nc(-n2ccnc2)n1 | >57 | 1%
CCCC(=O)N(CCc1ccccc1)Cc1nc2ccccc2c(=O)[nH]1 | >57 | -10%
Cc1cccn2c(=O)c3cc(C#N)c(=NC(=O)c4ccc5c(c4)OCO5)n(CC(C)C)c3nc12 | >57 | 12%
Cn1cc(-c2nc3cnc(N4CCNCC4)nc3n(C3CC3)c2=O)c2ccccc21 | >57 | ?
N#C/C(=C1\CCCN1)c1nc(-c2ccccc2)cs1 | >57 | ?
CC(=O)NCCOc1cccc2ccccc12 | >57 | 19%
N#Cc1cccc(NC(=O)N2CCC3(CC2)CCN(C(=O)c2cccc(F)c2)CC3)c1 | >57 | ?
CCOC(=O)c1c(CN2CCN(C)CC2)oc2ccc(OC)cc12 | >57 | 1%
CCCOc1ccc(-c2nc(N)n[nH]2)cc1 | >57 | 2%
O=C(O)c1ccc(-c2ccccc2)[nH]1 | >57 | -9%
Cc1nc2ccccc2c(=O)n1/N=C/c1ccc(O)cc1 | >57 | 2%
Cn1c(SCC(=O)Nc2cccc(F)c2)nnc1-c1cc2ccccc2o1 | >57 | .
CC(=O)c1c(NC(=O)C(C)C)nc(C)nc1-c1ccccc1 | . | 1%
CSc1ccc(NC(=O)NCCCN2CCN(c3ccccc3F)CC2)cc1 | >57 | -23%
C(=C\c1ccccc1)/CSc1nnc(-c2ccccn2)n1Cc1ccco1 | >57 | -23%
CC12CN3CCN(CC(C3)C1O)C2 (centres undefined) | >57 | .
CCOC(=O)c1ccc2nc(C(F)(F)F)[nH]c(=O)c2c1 | >57 | 2%
CN=Cc1sc2ccccc2c1O | >57 | 5%
COc1ccccc1OCc1ccc(C(=O)OCC2CCCO2)o1 (centres undefined) | >57 | -8%
COc1ccccc1-c1cc(NCc2cccc(C)c2)ncn1 | >57 | -7%
CC1CCC/C(=C\Nc2ccccc2C(=O)O)C1=O (centres undefined) | . | 6%
CC(C)(C)NC(=O)C(c1ccc(OCC(N)=O)cc1)N(C(=O)c1cccnc1)C1CC1 (centres undefined) | >57 | -2%
Cn1c(=S)c2[nH]c(SCCCc3ccccc3)nc2n(C)c1=O | >57 | ?
O=C1CC(c2ccccc2)CC2=C1CN(C1CCCCC1)CN2 (centres undefined) | >57 | -6%
CC(=NCC1CCCO1)c1c(O)n(Cc2ccccc2)c(=O)[nH]c1=O (centres undefined) | >57 | 1%

Three entries out of the list, sorted by length of the SMILES, ascending.
SMILES | SmPrx2 inh | LT uptake inh
CC1CCC/C(=C\Nc2ccccc2C(=O)O)C1=O (centres undefined) | . | 6%
Cn1c(=S)c2[nH]c(SCCCc3ccccc3)nc2n(C)c1=O | >57 | ?
C(=C\c1ccccc1)/CSc1nnc(-c2ccccn2)n1Cc1ccco1 | >57 | -23%

Other structures follow:
SMILES | SmPrx2 inh | LT uptake inh
Cn1cccc1C(=O)NC(=O)CSc1cccc[n+]1[O-] | >57 | 2%
CC1CCCN(C(=O)c2ccc3nc[nH]c3c2)C1 (centres undefined) | >57 | -23%
Cn1c(N2CCCC2)nc2c1c(=O)n(Cc1ccc(Cl)cc1)c(=O)n2C | >57 | .
COc1ccccc1CNc1nc(-c2cccc(C#N)c2)nc2ccccc12 | >57 | ?
O=C(Cn1c(C(=O)N2CCN(C3CCCC3)CC2)cc2sccc21)c1ccccc1 | >57 | 11%
Cc1nnc(SCC(=O)Nc2nc(-c3ccccc3)cs2)n1N | >57 | -3%
O=C1C(Cl)=C(NCCN2CCOCC2)C(=O)c2ncccc21 | . | ?
COC(=O)c1cccc(NC(=O)C2C3CCC(C3)C2C(=O)O)c1 (centres undefined) | >57 | -4%
O=[N+]([O-])c1ccccc1-c1ccccc1 | . | -10%
Cc1cnc(C(=O)Nc2ccc(F)c(F)c2)cn1 | >57 | -4%
C=CCNc1ncnc2c1cnn2-c1ccc(Cl)cc1 | >57 | 7%
COCCCNC(=O)c1c(NC(=O)c2ccco2)n(Cc2ccccc2)c2nc3ccccc3nc12 | >57 | .
Cc1cccc(N2CCN(C(=O)CCn3c(=S)[nH]c4cc5c(cc4c3=O)OCO5)CC2C)c1 (centres undefined) | >57 | ?
O=C1CSC(=S)N1/N=C\c1ccc(Cl)c([N+](=O)[O-])c1 | >57 | -1%[8 µM]
Cn1nccc1C(=O)Nc1ccc(OC(=O)c2ccnn2C)cc1 | >57 | -8%
CCOP(=O)(OCC)OCC | . | 4%
COc1ccc(C(=O)N2CCC[C@@]3(CCN(c4ccccn4)C3)C2)cc1 | >57 | ?
COCCn1c(=O)[nH]c2cc(C(=O)NCCN3CCN(c4cccc(Cl)c4)CC3)ccc2c1=O | >57 | 8%
Cc1nn(CC(C)C)c(=S)[nH]c1=O | >57 | 6%
c1cncc(-c2cncnc2-n2ccnc2)c1 | >57 | -1%
CCOC(=O)c1c(C(=O)OCC)c(C)n(N2C(=O)CSC2=S)c1C | >57 | -4%
COc1ccc(CNC(=O)C2CCCN2S(=O)(=O)c2ccccc2)cc1 (centres undefined) | . | -12%
S=c1[nH]nc(-c2cccnc2)n1Cc1ccccc1 | >57 | -6%
Cc1cc(C)cc(OCC(=O)NC2=NCCS2)c1 | >57 | -4%
O=C(Cc1ccccc1)Nc1ccc(CN2CCOCC2)cc1 | >57 | -3%
CNC(=O)c1nnn(-c2ccccc2)c1C(=O)NC | >57 | ?
Cc1cccc(Nc2nc(N)nc(CN3CCN(c4ccccc4)CC3)n2)c1 | >57 | 4%
Oc1ccccc1CNCCCNCc1ccccc1O | >57 | ?
COc1ccc(OC)c(NC(=O)N[C@@H](Cc2ccccc2)C(=O)O)c1 | >57 | 4%
Cc1cc(NC(=O)CCCC(=O)OCC(F)(F)C(F)F)cc(C)c1C(=O)O | >57 | ?
CCOC(=O)C1CCCN(C(=O)C2CCN(Cc3nc(-c4ccc(Cl)cc4)oc3C)CC2)C1 (centres undefined) | >57 | ?
COc1ccc(-c2nc3cnc(N(C)C)nc3n(C[C@H]3CCCO3)c2=O)cc1 | >57 | ?
C=CCNC(=O)C1CC(=O)N(c2ccc(OCC(=O)Nc3ccc(C)cc3)cc2)C1 (centres undefined) | >57 | -5%
O=C(Nc1ccncc1)c1ccccc1F | . | 13%
O=C(CN(Cc1cccs1)C(=O)CNC(=O)c1ccco1)NC1CCCCC1 | >57 | 12%
Cc1ccc(S(=O)(=O)NC(CC(=O)O)c2ccccc2)cc1 (centres undefined) | >57 | -11%
COc1cc(NS(=O)(=O)c2ccc(NC(=O)c3ccco3)cc2)nc(OC)n1 | >57 | 18%
COC(=O)c1ccc(Cl)c(NC(C)=O)c1 | >57 | 5%
CCSc1nnc(NC(=O)CSc2nc3c(c(=O)n2CC)SC(C)C3)s1 (centres undefined) | >57 | 13%
O=C(NCC(c1cccs1)N1CCOCC1)c1cc2ccccc2o1 (centres undefined) | >57 | -5%
CCCCN(CCCC)S(=O)(=O)c1ccc2oc(C(=O)N3CCOCC3)c(C)c2c1 | >57 | ?
Cc1ccc(N2CCN(CCC(=O)O)CC2)cc1 | >57 | -4%[8 µM]
CCn1c(NCc2ccccn2)nc2c1c(=O)n(C)c(=O)n2C | >57 | .
O=C(NC1CCCCC1)N(Cc1ccccc1)Cc1ccco1 | . | -21%
COC(=O)CC[C@@H](C)[C@H]1CC[C@H]2[C@H]3CC[C@H]4C[C@@H]5CC[C@@]4(C)C3(O5)[C@@H](Br)[C@@H](Br)[C@@]12C | >57 | ?
Cn1c(CSc2nc3ccccc3s2)nc2ccccc21 | >57 | 5%
Nc1nc(N2C(=O)C3CC=CCC3C2=O)nn1-c1ccccc1 (centres undefined) | >57 | 6%
C[C@@H](N)C(=O)O | >57 | -18%
Cc1ccc(Cn2nnc3c(=O)[nH]c(C4CCCN(C(=O)Nc5ccc(F)cc5)C4)nc32)cc1 (centres undefined) | >57 | 4%
CCOc1ccc(OCC)c(NC(=O)CSc2nc3c(c(=O)n(C)c(=O)n3C)n2C)c1 | >57 | -20%
Cn1c(=O)c2cc(S(=O)(=O)NC(Cc3ccccc3)C(=O)NCc3ccco3)ccc2n(C)c1=O (centres undefined) | >57 | -4%
CCn1cnc2c(Nc3cccc(Cl)c3)nc(N[C@@H]3CCCC[C@H]3N)nc21 | >57 | -10%
CCCc1[nH]nc2c1C(c1ccc(OC)c(CSC3=NCCS3)c1)C(C#N)=C(N)O2 (centres undefined) | >57 | ?
CCNc1ncc2nc(-c3ccc(OC)cc3)c(=O)n(Cc3ccc(F)cc3)c2n1 | >57 | ?
CC(=O)N1CCN(S(=O)(=O)c2ccc(C)cc2)C1C(C)C (centres undefined) | >57 | -1%
CC(C)CCN(C)C1CCN(C(=O)Nc2c(F)cccc2F)CC1 | >57 | -5%
O=C(C1=C(O)C(=O)N(Cc2ccccc2)C1c1ccncc1)c1ccco1 (centres undefined) | >57 | 1%
O=C(NC1CCCC1)C1c2ccccc2C(=O)N1C1CCCCC1 (centres undefined) | >57 | -19%
COCCn1c(=O)c(-c2ccc(Cl)cc2)nc2cnc(Oc3ccccc3)nc21 | >57 | ?
O=C(CSc1nnc(CNC(=O)c2ccco2)o1)c1ccccc1 | >57 | -3%
(next part)
SMILES | SmPrx2 inh | LT uptake inh
O=C1c2ccccc2C(=O)N1c1nc(-c2cccs2)cs1 | >57 | 8%
O=C(CCSc1ccccc1)Nc1ccc(S(=O)(=O)N2CCOCC2)cc1 | >57 | ?
O=C(C1CCN(c2ccc(N3CCOCC3)nn2)CC1)N1CCc2ccccc2C1 | >57 | ?
CN1CCC(O)(c2ccccc2)C2CCCC21 (centres undefined) | >57 | -8%
Nc1ccc(Cc2ccc(N)c(C(=O)O)c2)cc1C(=O)O | >57 | -3%[8 µM]
CN(Cc1cccs1)c1ncnc2sccc12 | >57 | -12%
O=S(=O)(c1ccc(-c2nnc(SCc3nnc(-c4ccccc4)o3)o2)cc1)N1CCCC1 | >57 | -26%
Cn1nnnc1SCC(=O)Nc1ccccc1N1CCCCC1 | >57 | -11%
Cc1cccc(CS(=O)(=O)Cc2ccc(C(=O)NCC3CCCO3)o2)c1 (centres undefined) | >57 | 6%
CSc1nnc2n(-c3ccccc3)c(=O)c3c4c(sc3n12)CCC4 | >57 | 3%
COCCSc1nnc(NC(=O)C2CCCCC2)s1 | >57 | -6%
Cc1c(S(=O)(=O)Nc2cccc(Cl)c2)c(=O)n(C)c(=O)n1C | >57 | -10%
O=C(CSc1nnc(-c2cccs2)n1CC1CCCO1)c1cc2ccccc2o1 (centres undefined) | >57 | -6%
Cc1ccc2oc(=O)c3cc(C(=O)NCc4ccco4)sc3c2c1 | >57 | ?
O=C(Nc1cccc(Cl)c1N1CCCC1)c1ccc(Br)o1 | >57 | ?
CCOc1ccc2nc(NC(=O)Nc3cccs3)sc2c1 | >57 | ?
COc1ccc(NC(=O)N2CCN(S(C)(=O)=O)CC2)cc1OC | >57 | 1%
Cn1nc(-c2ccc(OCC(=O)NCC3CCCO3)cc2)c2ccccc2c1=O (centres undefined) | >57 | -14%
COc1ccc(C(=O)Nn2c(SCC(=O)NCC3CCCO3)nc3ccccc3c2=O)cc1 (centres undefined) | >57 | 6%
Cc1ccccc1-n1nc2c(c1NC(=O)c1c(-c3ccccc3Cl)noc1C)CSC2 | >57 | -17%
Cc1ccc(Cn2nnc3c(=O)n(Cc4ccccc4C)cnc32)cc1 | >57 | 3%
CC1=NOC2(C1)N(C)c1ccccc1C2(C)C (centres undefined) | >57 | -6%

Two records drawn at random from those above, as already listed:
SMILES | SmPrx2 inh | LT uptake inh
COc1ccc(C(=O)Nn2c(SCC(=O)NCC3CCCO3)nc3ccccc3c2=O)cc1 (centres undefined) | >57 | 6%
Cc1ccc2oc(=O)c3cc(C(=O)NCc4ccco4)sc3c2c1 | >57 | ?
